EPAC1 agonist – qHTS for Agonist of cAMP-regulated guanine nucleotide exchange factor 3 (EPAC1): primary screen; Rap guanine nucleotide exchange factor 3 (Homo sapiens), O95398; AID 720707, 2013; hit rate 0.073% among 360,000; Potency, µM (series often up to 154 µM), for inactives: at the highest dose activation, usual class: activators; EPAC1 agonist qHTS, biochemical assay; response scale: 100% = response to 6.5 mM cAMP; further: potency means the concentration at half of the fitted maximal effect; nearly all actives have a fitted effect of over 60% in size
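Nucleotide exchange assay: 100 nM EPAC1 with 250 nM Rap1B loaded with BODIPY-GDP and 50 uM GDP, room temperature. Fluorescence (480/540 nm) read every 5 min for 30 min; signal change normalized to 6.5 mM cAMP as full agonist.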
PLK1 PBD inh – qHTS for Inhibitors of PLK1-PDB (polo-like kinase 1 - polo-box domain): Primary Screen; Plk1 PBD binding of FITC phosphopeptide, fluorescence polarization; Potency, µM, without a hit: max response, negative = inhibition, hits mostly inhibitors; hit rate 2.8% among 360,000; AID 720504, 2013; further: potency means the concentration at half of the fitted maximal effect; series mostly up to about 57 µM; on the % scale 0 is the no-effect control and ±100 the full control effect; nearly all actives have a fitted effect of over 65% in size
WRN helicase inh – qHTS for Inhibitors of WRN Helicase | AID 651768, 2012 | Bifunctional 3'-5' exonuclease/ATP-dependent helicase WRN (Homo sapiens), Q14191 | hit rate 0.46% among 360,000 | WRN helicase unwinding, fluorescent forked duplex, kinetic | Potency, µM (titrated, usually from 114 µM), for inactives: top-dose activity change, negative = inhibition, usual class: inhibitors; further: potency means the concentration at half of the fitted maximal effect; on the % scale 0 is the no-effect control and ±100 the full control effect; nearly all actives have a fitted effect of over 55% in size
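WRN at 20 nM final was preincubated with compound for 15 min at room temperature; reaction started with 100 nM forked duplex oligonucleotide carrying fluorophore and quencher plus 2 mM ATP (final). Unwinding followed kinetically by red fluorescence (ex 525/em 598 nm).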
PI5P4K alpha inh – qHTS for Inhibitors of phosphatidylinositol 5-phosphate 4-kinase (PI5P4K); hit rate 1.2% among 330,000; max response, %; Phosphatidylinositol 5-phosphate 4-kinase type-2 alpha (Homo sapiens), P48426; PI5P4Kalpha enzyme, ADP-Glo luminescence, 60 min; active compounds read low; active means max response of -50% or lower; inconclusive means between -30% and -50%; inactive means -30% or higher; further: value at the top dose of about 77 µM; on the % scale 0 is the no-effect control and ±100 the full control effect
Target sequence (P48426 whole entry, looked up): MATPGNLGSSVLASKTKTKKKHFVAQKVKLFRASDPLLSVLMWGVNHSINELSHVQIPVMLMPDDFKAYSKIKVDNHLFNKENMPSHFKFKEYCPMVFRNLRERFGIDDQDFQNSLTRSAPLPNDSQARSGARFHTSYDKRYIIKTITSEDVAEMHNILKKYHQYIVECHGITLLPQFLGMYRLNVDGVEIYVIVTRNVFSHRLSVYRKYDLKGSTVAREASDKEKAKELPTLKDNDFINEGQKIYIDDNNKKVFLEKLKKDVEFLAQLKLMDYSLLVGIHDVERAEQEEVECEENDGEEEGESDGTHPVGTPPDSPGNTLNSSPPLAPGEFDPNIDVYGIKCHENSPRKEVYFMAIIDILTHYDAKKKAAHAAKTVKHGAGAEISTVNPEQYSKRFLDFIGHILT
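Luminescence from ADP-Glo served as readout of PI5P4Kalpha activity in a qHTS format. Reaction: enzyme, substrate, compound, ATP at 5 microM final, 60 min at RT.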
Mm-Cpn inhibitor – Inhibitors of TCP-1 ring complex (TRiC) of Methanococcus maripaludis (MmCpn): qHTS | Chaperonin Mm-Cpn (Methanococcus maripaludis) | purified Mm-Cpn ATPase, ADP Transcreener TR-FRET | Potency, µM (series often up to 76.9 µM), inactives show at the top dose activity, negative = inhibition, most hits filed as inhibitors | hit rate 0.031% among 330,000 | AID 504842, 2011; further: potency means the concentration at half of the fitted maximal effect; on the % scale 0 is the no-effect control and ±100 the full control effect; nearly all actives have a fitted effect of over 80% in size
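ATPase turnover read by TR-FRET ADP competition (Eu cryptate antibody/ADP-d2, 665/590 nm): 10uM ATP final, 25nM Mm-CPN final, 30 min 37degC after 10-min compound preincubation, pH 7.4 Tris/KCl/MgCl2/DTT buffer.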
EPAC1 antag – qHTS for Antagonist of cAMP-regulated guanine nucleotide exchange factor 3 (EPAC1): primary screen. Rap guanine nucleotide exchange factor 3 (Homo sapiens), O95398. EPAC1 GEF assay, Rap1b-BODIPY-GDP exchange fluorescence. Potency, µM (series often up to 115 µM), for the others: at the highest dose activity change, negative = inhibition, hits mostly inhibitors. hit rate 0.14% among 360,000;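 further: potency means the concentration at half of the fitted maximal effect; plate controls were vehicle for no effect and positive control for full effect; nearly all actives have a fitted effect of over 50% in size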
CCT modulator – High-Throughput Screening for Modulators of Cytosolic Chaperonin Activity; purified chaperonin ATPase assay, HTRF ADP detection, 30 min; activity change, % (concentration not given with the values), hits read low; hit rate 0.3% among 360,000; in the data active means activity change below about -30%; further: on the % scale 0 is the no-effect control and ±100 the full control effect
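Nucleotide hydrolysis assay: TRiC at 20–40 nM final (set by batch activity) with 10 uM ATP, 30 min at 37 °C, in presence of 76 uM compound. Detection by competitive ADP HTRF, 30 min ambient.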
* hit, by the source's call; u = inconclusive; x = not tested or not shown. Unless noted, the call rests on the fitted dose curve; in most records, active means well fitted curve in the direction sought with a large enough effect; inconclusive means small, poorly fitted or top-dose-only effect, or another doubt; inactive means no such curve, though single readings can be large; an effect the other way counts as inactive or inconclusive. Only part of the results is shown; rates above refer to the full screens.

Value order: EPAC1 agonist, PLK1 PBD inh, WRN helicase inh, PI5P4K alpha inh, Mm-Cpn inhibitor, EPAC1 antag, CCT modulator
- COc1cc(-c2nc3ccccn3c2NCc2ccccc2)ccc1SC1CCCCC1
 : -14%, 4%, 2%, 1, -2%, -8%, -1.9
- C=C(C)Cn1c(C2CC(=O)N(Cc3ccccc3)C2)nc2ccccc21 (stereo not drawn)
 : 1%, -10%, -6%, -1, 0%, 13%, -3.2
- O=C1OC(c2ccccc2)(c2ccc3cc(O)ccc3c2)c2ccccc21 (stereo not drawn)
 : 0%, 1%, -14%, 1, x, -4%, -1.0
- CC1CCC2(CC1)NC(=O)N(Cc1nc(-c3ccccc3)no1)C2=O (stereo not drawn)
 : -5%, 2%, -2%, -2, 1%, -5%, -2.7
- CCNC(=O)C1(C)CCCN1Cc1cccc(C(F)(F)F)c1 (stereo not drawn)
 : -6%, -10%, -3%, -1, x, -18%, 1.6
- COC(=O)c1ccc2nc(C3CCCCC3)c(Cc3ccccc3C(F)(F)F)n2c1
 : -10%, 3%, -10%, 3, x, -21%, 0.5
- CCCCc1c(C)nc2ccccc2c1SCCC#N
 : -4%, u, -6%, 9, -2%, 6%, 1.7
- CCN1CCc2c(sc(NC(=O)CN3C(=O)c4ccccc4C3=O)c2C(N)=O)C1
 : 4%, -2%, -4%, -4, -3%, -12%, -4.6
- COc1ccc2c(c1)CCc1c(C(=O)NCCCn3ccnc3)noc1-2
 : -7%, -8%, 3%, x, 1%, -1%, -2.2
- CCCCNC(=O)C1(C)CCCCN1CC(=O)c1ccc(OC)cc1 (stereo not drawn)
 : 14%, -11%, -2%, 4, x, -6%, -13
- COc1ccccc1NC(=O)c1c(Br)cnn1C
 : 1%, -8%, 0%, -1, 3%, 1%, -3.4
- CN(C)CCN(Cc1ccccc1)C(c1cc2ccccc2o1)c1nnnn1C(C)(C)C (stereo not drawn)
 : -5%, 0%, -5%, 0, x, 9%, -1.4
- CC[C@@H]1C=C(C(=O)O)[C@H](c2ccc(C)cc2)N1S(=O)(=O)c1ccc(C)cc1
 : -6%, -10%, -3%, -11, 0%, -3%, -0.8
- O=C(O)Cc1ccc(NC(=O)C(c2ccccc2)c2ccccc2)cc1
 : -1%, -7%, 6%, 0, -1%, -21%, -2.4
- CCOC(=O)c1c(CC(C)C)csc1NC(=O)C(C)C
 : -24%, -10%, -2%, 21, 4%, -5%, 0.4

Part of the list above, set out differently.
CN(C)CCN(Cc1ccccc1)C(c1cc2ccccc2o1)c1nnnn1C(C)(C)C (stereo not drawn)
  EPAC1 agonist: -5% | PLK1 PBD inh: 0% | WRN helicase inh: -5% | PI5P4K alpha inh: 0 | Mm-Cpn inhibitor: x | EPAC1 antag: 9% | CCT modulator: -1.4
CC[C@@H]1C=C(C(=O)O)[C@H](c2ccc(C)cc2)N1S(=O)(=O)c1ccc(C)cc1
  EPAC1 agonist: -6% | PLK1 PBD inh: -10% | WRN helicase inh: -3% | PI5P4K alpha inh: -11 | Mm-Cpn inhibitor: 0% | EPAC1 antag: -3% | CCT modulator: -0.8
O=C(O)Cc1ccc(NC(=O)C(c2ccccc2)c2ccccc2)cc1
  EPAC1 agonist: -1% | PLK1 PBD inh: -7% | WRN helicase inh: 6% | PI5P4K alpha inh: 0 | Mm-Cpn inhibitor: -1% | EPAC1 antag: -21% | CCT modulator: -2.4
CCOC(=O)c1c(CC(C)C)csc1NC(=O)C(C)C
  EPAC1 agonist: -24% | PLK1 PBD inh: -10% | WRN helicase inh: -2% | PI5P4K alpha inh: 21 | Mm-Cpn inhibitor: 4% | EPAC1 antag: -5% | CCT modulator: 0.4

More results follow.
Value order: EPAC1 agonist, PLK1 PBD inh, WRN helicase inh, PI5P4K alpha inh, Mm-Cpn inhibitor, EPAC1 antag, CCT modulator
- O=C(Cn1nc(-c2ccccc2)nc1-c1ccccc1)OC1CCCCC1
 : 22%, 0%, -11%, x, 4%, 0%, -4.4
- COc1cc(OC)c2c(c1)OC(=O)CC2c1ccc2c(c1)OCO2 (stereo not drawn)
 : 6%, -12%, -7%, 7, -1%, -7%, 0.5
- Cc1ccc(CN(Cc2ccco2)C(=O)c2ccco2)cc1
 : 7%, -16%, 10%, -2, 1%, 4%, -1.5
- Cc1ccc(C(C)C)c2c1C(c1ccc3c(c1)OCO3)CC(=O)O2 (stereo not drawn)
 : 6%, -9%, -2%, 1, -2%, -14%, -2.6
- COc1ccc2c(c1)CCc1c(C(=O)Nc3c(C)nn(Cc4ccccc4)c3C)noc1-2
 : 10%, -1%, -10%, 2, 0%, -9%, 0.4
- Cc1ccc2c(c1)OC(=O)CC2c1ccccc1 (stereo not drawn)
 : 4%, -22%, 2%, -8, -2%, -23%, -2.7
- COc1ccc(N2C(=O)[C@H]3CCC=C[C@H]3[C@@H]2c2ccccc2Br)cc1
 : -1%, -19%, -12%, 0, 0%, -14%, 0.6
- CC(=O)OC1CC(C)N(C(=O)c2ccccc2)c2ccc(C)cc21 (stereo not drawn)
 : -10%, -6%, 2%, 0, 0%, 0%, -2.4
- Fc1ccc(CNCCC(Cc2ccccc2)c2ccco2)cc1 (stereo not drawn)
 : -5%, -11%, -7%, 7, 0%, -14%, -1.2
- COc1ccc(/C=C/C(=O)c2ccc(Cl)cc2)c(OC)c1
 : 15%, -1%, -3%, 2, 2%, -7%, 1.0
- Cc1cc(S(=O)(=O)N2CCCCCC2)c(Cl)cc1Cl
 : 8%, -2%, -3%, 5, -1%, -3%, -0.2
- CCNC(=O)C1(C)CCCCN1Cc1ccc(C#N)cc1 (stereo not drawn)
 : 14%, -2%, -4%, -2, x, -9%, 0.3
- COc1ccc(/C=N/n2cnc3c([nH]c4ccccc43)c2=O)cc1CO
 : 14%, 11µM*, -2%, u, 0%, 2%, -1.0
- CSc1nc(N)c(C(=O)N(c2ccccc2)c2ccccc2)s1
 : 7%, -2%, -4%, 1, x, -20%, -1.2
- CCOC(=O)C1Oc2ccccc2C(c2cccc3ccccc23)=C1C(=O)OC (stereo not drawn)
 : 2%, -6%, -8%, 2, -1%, -5%, 3.7

Four of the entries above in order of the WRN helicase inh value, rising.
| smiles | WRN helicase inh |
| --- | --- |
| COc1ccc(N2C(=O)[C@H]3CCC=C[C@H]3[C@@H]2c2ccccc2Br)cc1 | -12% |
| O=C(Cn1nc(-c2ccccc2)nc1-c1ccccc1)OC1CCCCC1 | -11% |
| COc1ccc2c(c1)CCc1c(C(=O)Nc3c(C)nn(Cc4ccccc4)c3C)noc1-2 | -10% |
| CCNC(=O)C1(C)CCCCN1Cc1ccc(C#N)cc1 (stereo not drawn) | -4% |

Following part
Value order: EPAC1 agonist, PLK1 PBD inh, WRN helicase inh, PI5P4K alpha inh, Mm-Cpn inhibitor, EPAC1 antag, CCT modulator
- COC(=O)c1ccc2nc(-c3ccc(Cl)cc3)c(Cc3ccccc3OC)n2c1
 : -3%, -1%, -9%, 3, x, 17%, -1.0
- O=C(O)c1cccnc1Sc1ccccc1
 : 10%, -8%, 7%, -13, 5%, -11%, -1.2
- COc1ccc(N2C(=O)CSC2c2ccccc2F)c(OC)c1 (stereo not drawn)
 : 8%, -7%, 10%, 3, 2%, -10%, -2.9
- CC(C)C(=O)NC(=S)Nc1ccc(S(=O)(=O)N2CCCC2)cc1
 : 13%, -12%, 4%, 8, 0%, 2%, -1.9
- COc1ccc(-c2nnc(SCc3ccc(C(=O)O)cc3)n2C)cc1OC
 : 10%, -7%, -2%, -6, -2%, -6%, -1.1
- COc1ccc2c(c1)/C(=C\c1cccc(/C=C3/C(=O)Nc4ccc(OC)cc43)n1)C(=O)N2
 : -6%, -9%, -11%, -11, x, 4%, 1.2
- COc1cccc(C(=O)/C=C/Nc2ccc(S(=O)(=O)Nc3cccc(C(C)=O)c3)cc2)c1
 : 14%, 1%, -22%, -11, -21%, -1%, -2.3

Screening results deposited in PubChem BioAssay by National Center for Advancing Translational Sciences (NCATS).
